2A StopGo = FMDV 2A StopGo reporter, luciferase signal; Potency, µM (titrated, usually from 57.9 µM), for inactives: at the top dose signal change, negative = less light; human cells with a luciferase reporter of 2A StopGo recoding; control for the full effect not named in the record; actives 1.2% (n = 410,000); AID 1159524; active = well fitted falling curve with a large enough effect; inconclusive = small, poorly fitted or top-dose-only effect; inactive = no such curve, though single readings can be large or run the other way; tested in HEK293T cells; also: nearly all actives have a fitted effect of over 45% in size; luciferase light after 4 h
RE007 growth inh = less growth of the S. pombe RE007 Vpr strain | S. pombe RE007 Vpr strain, BacTiter-Glo ATP luminescence, 24 h; control for the full effect not named in the record | Potency, µM (top dose mostly 92.2 µM), inactives show top-dose activity change, negative = less growth | actives 0.21% (n = 360,000) | AID 651644; active = well fitted falling curve with a large enough effect; inconclusive = small, poorly fitted or top-dose-only effect; inactive = no such curve, though single readings can be large or run the other way;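 also: nearly all actives have a fitted effect of over 50% in size; the assay follows cell death caused by Vpr and the record does not say whether a fall means rescue or toxicity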
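Fission yeast strain RE007, carrying one chromosomally integrated HIV-1 vpr copy, was seeded at OD 0.01 in PMG+AL medium with 23 nL pinned compound. After 24 h at 30 °C and 99% humidity, viability was read by BacTiter-Glo luminescence.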
An asterisk follows results filed as active; ? = inconclusive; [ ] = another dose, or the depositor's remark. % is scaled to controls: 0 for no effect and ±100 for the full control effect; potency is read from the fitted curve at half-maximal effect.

SMILES | 2A StopGo | RE007 growth inh
CC(C)NC(=O)C1C(c2ccc(C(F)(F)F)cc2)=Nc2ccccc2N1C(=O)c1cccc(C(F)(F)F)c1 (stereo not drawn) | 4.0% | -2.3%
CC(C)(C)c1ccc(C(O)c2ncc(-c3cccc(F)c3)[nH]2)cc1 (stereo not drawn) | 11.0% | -4.9%
CC1(C(=O)NS(=O)(=O)c2ccc(Cl)cc2)CCN1C(=O)Cc1cc(F)ccc1F (stereo not drawn) | -10.0% | 6.2%
CC(=O)Nc1cccc(C(=O)N2CCN(S(=O)(=O)c3ccc(C4CCCCC4)cc3)CC2)c1 | ? | -8.1%
CC(C)NC(=O)C1(C)CSCC(=O)N1Cc1ccco1 (stereo not drawn) | -14.1% | 0.0%
FC(F)(F)c1cc(Cl)c2nc(-c3ccccc3)c(Cc3ccsc3)n2c1 | 19.9% | 2.4%
COP(=O)(OC)C(=NNS(=O)(=O)c1ccc(C)cc1)c1ccccc1 | 15.6% | 4.0%
CC1(C(=O)NS(=O)(=O)c2ccc(F)cc2F)CCN1C(=O)Cc1ccc(-c2ccccc2)cc1 (stereo not drawn) | -6.7% | 3.3%[18.4 µM]
O=C1c2ccccc2C(=O)N1c1ccccc1 | 1.7% | -4.3%
CO[C@H]1CN(C)C(=O)c2ccc(NC(=O)c3ccc4c(c3)OCO4)cc2OC[C@H](C)N(CC2CC2)C[C@@H]1C | -23.5% | -14.0%
O=C(NCC1CC1)C1Cc2c(-c3cccc(F)c3)ccnc2O1 (stereo not drawn) | -2.5% | 4.3%[18.4 µM]
CCC(=O)N1CCC1(C)C(=O)Nc1ccccc1 (stereo not drawn) | -9.1% | 8.1%[18.4 µM]
COc1ccc(CN2C(=O)CCC2(C)c2nnnn2-c2ccc3c(c2)OCCO3)cc1OC (stereo not drawn) | -22.9% | -3.1%
Cc1nc(C(=O)Nc2cc(F)cc(Cl)c2)sc1C1(C)CC(c2ccccc2)=NO1 (stereo not drawn) | ? | 22.8%
Cc1cc(Br)cn2c(Cc3ccccc3)c(-c3ccc(Cl)cc3)nc12 | -13.4% | 1.8%
CCCc1nc2ccccc2n1C(CCSC)C(=O)NC(C)(C)C (stereo not drawn) | -23.4% | -15.0%
CN(Cc1ccccc1)N=Nc1ccccc1 | 12.0% | 12.1%
C#CCOCCOCCOCCNc1nc(N2CCN(C(=O)C([C@@H](C)CC)n3cc(C(N)COC(=O)C(F)(F)F)nn3)CC2)nc(N2CCN(C(=O)[C@H](CCC(=O)O)n3cc(C(N)CC(C)C)nn3)CC2)n1 (stereo partly drawn) | -9.1% | 4.9%
CCC(c1nc2ccccc2[nH]1)n1c(=O)c(-c2cccs2)nc2ccccc21 (stereo not drawn) | -18.8% | -8.1%
O=C(Nc1ccn(CCCN2CCC(N3CCOCC3)CC2)c(=O)n1)OCc1ccccc1 | -12.3% | 0.5%
CN(CC(=O)Nc1c(Cl)cccc1Cl)C(=O)c1ccc(NS(=O)(=O)c2ccc3[nH]c(=O)[nH]c3c2)cc1 | -1.2% | -9.2%
CCC(=O)N1CCC1(C)C(=O)Nc1ccc2c(c1)OCO2 (stereo not drawn) | 0.5% | 9.2%[18.4 µM]
CC(=O)Nc1cncc(-c2ccccc2C(C)=O)n1 | 25.8% | 12.2%[18.4 µM]
O=C(NCc1ccccc1Cl)c1ccc2nc([C@@H]3O[C@H](CO)[C@H](O)[C@H](O)[C@H]3O)[nH]c2c1 | -14.9% | 10.1%
CCOC(=O)CC1(CCc2ccccc2)Oc2ccccc2N1S(=O)(=O)c1ccc(C)cc1 (stereo not drawn) | 0.0% | -15.9%
CCS(=O)(=O)NC(=O)C1(C)CCN1C(=O)C1(c2ccc(Cl)cc2)CC1 (stereo not drawn) | -8.5% | 5.1%
O=C(C[C@@H]1CC[C@@H](NC(=O)Nc2cccc(F)c2)[C@@H](CO)O1)NCC1CCCCC1 | -10.9% | 6.4%
Cc1ccc(C2=NOC(C)(c3nnc(-c4cccc(Cl)c4)o3)C2)cc1 (stereo not drawn) | -4.7% | -16.8%
COc1ccc(CCN2CC(C(=O)NCc3cnn(C)c3)CCC2=O)cc1 (stereo not drawn) | 0.9% | 0.2%
Cc1cc(C(=O)N2CCC2(C)C(=O)NS(=O)(=O)c2ccc(F)cc2F)nn1C (stereo not drawn) | -21.0% | -5.5%[18.4 µM]
CCC(CC)CN1CCC(CN2C(=O)C(=O)NC[C@@H]2CC(C)C)CC1 | -10.6% | -11.6%
CC(C)N1CC(=O)N2CSCC2C1=O (stereo not drawn) | -18.0% | 1.1%
CCCNC(=O)C1(C)CCN(C(=O)c2sccc2C)C1 (stereo not drawn) | -10.5% | 3.3%
O=C(Nc1nc(-c2ccc([N+](=O)[O-])cc2)cs1)C1=COCCO1 | -17.3% | ?
CCCCNC(=O)C1(C)CCCCN1C(=O)c1ccc2c(c1)C(C)(C)CCC2(C)C (stereo not drawn) | -16.2% | -2.8%[18.4 µM]
CSCCC(c1nc2ccccc2[nH]1)n1c(=O)c(-c2cccnc2)nc2ccccc21 (stereo not drawn) | -2.9% | ?
COc1ccc(C(=O)c2c(-c3ccsc3)oc3ccc(-c4ccc(OC)cc4)cc23)cc1 | -5.8% | -1.3%
CCOC(=O)C1(C)CCCN(C(=O)c2cccc(C(F)(F)F)c2)C1 (stereo not drawn) | 5.2% | 7.4%
O=[N+]([O-])c1nccn1CCCCCCN1CCOCC1 | -15.9% | -3.8%[18.4 µM]
O=C(O)C(Cc1c[nH]c2ccccc12)NS(=O)(=O)c1ccc(F)cc1 (stereo not drawn) | -23.9% | -0.3%
CSc1ncnc2c1ncn2CCCNCc1cccs1 | -10.3% | -2.5%
Cc1c(C(=O)NCc2cccs2)sc(=O)n1Cc1ccc(S(=O)(=O)N(C)C)cc1 | ? | 6.4%[18.4 µM]
Cc1ccc(S(=O)(=O)N(C)C[C@H]2OCCCC[C@@H](C)Oc3ccc(N(C)C)cc3C(=O)N([C@H](C)CO)C[C@@H]2C)cc1 | -21.9% | 2.8%
COc1ccc(C(C(=O)NC(C)(C)C)n2c(=O)c(-c3ccco3)nc3ccccc32)cc1 (stereo not drawn) | -3.3% | 0.0%
O=C1c2ccccc2C(=O)N1CCc1c(-c2ccccc2)[nH]c2ccccc12 | ? | -17.9%
Cc1cc(Br)ccc1NC(=O)CN(C)C(=O)C1CCN(C(=O)c2ccc(Cl)cc2)CC1 | -11.5% | 8.2%
O=C(N[C@@H]1CC[C@@H](CCn2cc(-c3ccccc3)nn2)O[C@@H]1CO)c1cnccn1 | -13.6% | 7.8%
CC(C)C[C@@H]1COc2cc(N3CC[C@H](O)C3)ccc2S(=O)(=O)N1 | -7.9% | 3.3%
C=CCCC[C@@H]1OC(=O)CNC(=O)C([C@@H](C)CC)NC(=O)[C@@H]2CCCN2C(=O)C([C@@H](C)CC)OC(=O)[C@H](Cc2ccccc2)N(C)C(=O)[C@H](C(C)C)NC(=O)C1(C)C (stereo partly drawn) | -18.8% | 4.7%
C[C@H]1CN([C@@H](C)CO)C(=O)CCCn2nncc2CO[C@H]1CN(C)C(=O)c1ccc(N2CCN(C)CC2)cc1 | -15.6% | 8.8%
COC(=O)C1(C(=O)OC)C[C@H](c2ccc(OC)cc2)N(Cc2ccccc2OC)[C@@H]1c1ccc(OC)cc1 | -15.0% | -23.8%
Cc1cccc(CN2CCN(C3CN(Cc4cn(Cc5ccccc5)nn4)S(=O)(=O)C3)CC2)c1 (stereo not drawn) | -24.3% | -26.8%
CSCc1cc(C(=O)NCCN2CCOCC2)c(N)s1 | -9.1% | -2.7%
OC(c1ccc(F)cc1)c1nc(/C=C/c2ccccc2)cs1 (stereo not drawn) | 28.3% | -18.4%[18.4 µM]
CC(NC(=S)NC(=O)c1ccccc1)c1ccccc1 (stereo not drawn) | -14.6% | -23.4%
CC(O)(c1cccc(F)c1)c1nc(-c2cccc(C(F)(F)F)c2)cs1 (stereo not drawn) | -10.0% | 35.5µM*
CC[C@]12C(=O)N(C)C[C@H]([C@@H]3C(=O)N(C)C(=O)[C@@H]31)N2C(=O)c1ccc(Cl)cc1 | -1.9% | 9.2%
COCC(O)Cn1ccnc1[N+](=O)[O-] (stereo not drawn) | -11.7% | -11.7%
CCCS(=O)(=O)NC(=O)C1(C)CCN(C(=O)c2cc(C)oc2C)C1 (stereo not drawn) | -12.8% | 28.6%
CC(C)C(C(=O)NCc1ccccc1)N1CCN(c2ccccc2F)CC1 (stereo not drawn) | -10.7% | 0.5%

Part of the list above, as labelled records:
CCOC(=O)CC1(CCc2ccccc2)Oc2ccccc2N1S(=O)(=O)c1ccc(C)cc1 (stereo not drawn)
  2A StopGo: 0.0%
  RE007 growth inh: -15.9%
CC(C)NC(=O)C1C(c2ccc(C(F)(F)F)cc2)=Nc2ccccc2N1C(=O)c1cccc(C(F)(F)F)c1 (stereo not drawn)
  2A StopGo: 4.0%
  RE007 growth inh: -2.3%
Cc1ccc(S(=O)(=O)N(C)C[C@H]2OCCCC[C@@H](C)Oc3ccc(N(C)C)cc3C(=O)N([C@H](C)CO)C[C@@H]2C)cc1
  2A StopGo: -21.9%
  RE007 growth inh: 2.8%
CCCNC(=O)C1(C)CCN(C(=O)c2sccc2C)C1 (stereo not drawn)
  2A StopGo: -10.5%
  RE007 growth inh: 3.3%

Next part
SMILES | 2A StopGo | RE007 growth inh
C[C@@H]1CNC(=O)c2c(C(=O)NCc3ccc(CNC(=O)OC(C)(C)C)cc3)ncn21 | ? | 16.6%
O=C(NCc1ccccc1)C1c2ccccc2OCC(=O)N1Cc1cccnc1 (stereo not drawn) | -25.8% | 10.4%
O=C(O)C1(C(=O)O)CCC2(CCCCC2)CC1 | -23.6% | 1.5%
O=C(Nc1ccc2c(c1)OCCO2)c1c(Cl)cccc1Cl | 23.5% | -15.2%
CN(C)CCCNc1nc2cc(-c3cnn(Cc4ccccc4)c3)sc2c(=O)n1C | 19.4% | -23.0%
COc1cc(N(CCCn2cnc3c(SC)ncnc32)CCCn2cnc3c(SC)ncnc32)cc(OC)c1OC | -14.6% | -25.1%
NCCCC[C@H]1CN=C(N)N1CCc1cccc2ccccc12 | -9.4% | 0.9%
CCOC(=O)C1=CC[C@@H](c2ccncc2)N(S(=O)(=O)c2ccc(C)cc2)C1 | -15.2% | -4.6%
O=c1ccn([C@@H]2O[C@H](CNCc3ccccc3OCc3ccc(Cl)cc3Cl)[C@@H](O)[C@H]2O)c(=O)[nH]1 | -21.2% | ?
COc1ccc(NC(=O)N(C)C[C@@H]2OCc3cnnn3CCCC(=O)N([C@H](C)CO)C[C@@H]2C)c(OC)c1 | -23.4% | 2.1%
O=c1[nH]c(=S)[nH]c2c1C(c1ccc(F)cc1)OC(CCOCc1ccccc1)C2 (stereo not drawn) | -28.3% | 11.4%
CC1(C(=O)NS(=O)(=O)c2cccc(Cl)c2)CCN1C(=O)c1ccccc1CCc1ccccc1 (stereo not drawn) | -1.1% | 9.1%[18.4 µM]
COc1ccc(-c2c(C)nn3c(C(F)(F)F)cc(C)nc23)cc1 | 0.0% | -1.2%
COc1cc(OC)nc(Nc2nc(C(N)Cc3ccc(F)cc3)cs2)n1 (stereo not drawn) | ? | 2.4%
O=C(COC(=O)CCc1c[nH]c2ccccc12)Nc1cccc(Cl)c1 | -14.0% | -2.4%
O=S(=O)(/N=C(\c1ccc(F)cc1)N1CCOCC1)c1ccccc1 | -16.1% | -3.0%
COc1cc(Cl)c(C)cc1NC(=O)c1ccccc1NC(=O)CN1CCN(c2ccccn2)CC1 | -29.1% | 1.7%
COc1cc(CN2C[C@@H](CO)O[C@@H](n3cnc4c(N(C)C(C)C)ncnc43)C2)cc(OC)c1OC | 0.0% | 9.6%
O=C1OCCC1=COCCCCCCOC=C1CCOC1=O | -15.5% | -0.9%
CCN(CC)C(=O)C1=C(C)N(CCCN2CCCC2=O)C(=O)C(CC(=O)NCCN2CCOCC2)C1 (stereo not drawn) | -1.7% | -6.3%
Cc1c(C(=O)Nc2cccc(Oc3ccccc3)c2)sc(=O)n1Cc1ccc(F)cc1 | ? | -12.5%[18.4 µM]
O=C(CC1SC(N2CCCCC2)=NC1=O)Nc1cccc(C(=O)N2CCCC(C(F)(F)F)C2)c1 (stereo not drawn) | -12.7% | 10.7%
CC(C)(C)C(c1nc2ccccc2[nH]1)n1c(-c2cccc(S(C)(=O)=O)c2)nc2ccccc21 (stereo not drawn) | 25.0% | -12.9%
COC(=O)C1=C(c2cc3ccccc3o2)C[C@@H]2CC[C@H]1N2C(=O)NCc1cccc2ccccc12 | -13.7% | -2.0%
COC(=O)[C@]12CCCCC=C1N(Cc1ccc(Cl)cc1Cl)C(=O)[C@H](CC(=O)NCc1cccs1)C2 | -8.6% | 13.2%
C=CCNC(=O)c1ccc2c3n(nc2c1)-c1ccc(Cl)cc1CO3 | 24.1% | -7.1%
CC(=O)Nc1cccc(Nc2cnccn2)c1 | 13.9% | 0.0%
Cc1c2cnn(CC(=O)NCCN3CCOCC3)c(=O)c2c(C)n1Cc1ccccc1F | -1.9% | 4.5%
CC(=O)Nc1cccc(NC(=O)c2ccc(S(=O)(=O)NCc3ccco3)cc2)c1 | -22.7% | 9.6%
CCOC(=O)[C@]12Cc3cc(OC)ccc3[C@H]1N(CC(=O)OC)C(=O)c1ccccc12 | -18.4% | -0.9%
COc1ccc(-n2nnnc2C(c2ccnc3ccccc23)N2CCC3(CC2)C(=O)NCN3c2ccccc2)cc1 (stereo not drawn) | -20.2% | 3.7%

Compound activity from PubChem BioAssay.

A portion of the library, so the mix of outcomes need not match the whole.
